# Rce1 inh – blocks yeast Ras-converting enzyme; AID 2563; yeast membranes, quenched prenylated peptide cleavage fluorescence; 290,000 compounds, 0.27% hits; calls only;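 active = fall in fluorescence gain of 50% or more versus controls, with final raw signal at or below 3038400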;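 also: plate controls were neutral control wells for no effect and wells lacking membranes for full effect; tested at 10 µM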
# Target sequence (Q03530 whole entry, looked up): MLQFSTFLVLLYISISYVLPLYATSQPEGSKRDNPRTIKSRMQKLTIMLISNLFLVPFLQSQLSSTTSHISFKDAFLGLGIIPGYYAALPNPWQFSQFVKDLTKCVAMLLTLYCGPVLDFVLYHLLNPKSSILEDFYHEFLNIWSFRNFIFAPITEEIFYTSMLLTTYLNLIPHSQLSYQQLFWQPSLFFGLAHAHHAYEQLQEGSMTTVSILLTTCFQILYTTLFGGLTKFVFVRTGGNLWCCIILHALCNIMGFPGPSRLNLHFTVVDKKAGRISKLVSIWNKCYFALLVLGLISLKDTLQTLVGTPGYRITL
# CSC inhib – blocks cancer stem cells; cancer stem cell-like cells viability, luminescence; inhibition, % at 7.5 µM; 300,000 compounds, 1.1% hits; AID 2717;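 active = mean at 75% or more and at least half the replicates too; tested in HMLE shEcad cells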;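 also: 0% = median of negative and 100% = median of positive control wells; the first replicate is given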
# PABP FP inh – PABP-poly(A) binding inhibition. AID 2014. P11940. inhibition, % at 35 µM. 290,000 compounds, 1% hits. PABP-poly(A) RNA binding, fluorescence polarization;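 active = 50% or more with normal probe brightness, or confirmed in later tests; about a fifth of its hits are not listed in these tables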;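 also: calls also rest on retests at 20 µM and on dose response follow-up; controls were probe without protein and protein plus probe with vehicle; some compounds called inactive have numbers as strong as hits; many hits fall short of the cut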
# Target sequence (P11940 whole entry, looked up): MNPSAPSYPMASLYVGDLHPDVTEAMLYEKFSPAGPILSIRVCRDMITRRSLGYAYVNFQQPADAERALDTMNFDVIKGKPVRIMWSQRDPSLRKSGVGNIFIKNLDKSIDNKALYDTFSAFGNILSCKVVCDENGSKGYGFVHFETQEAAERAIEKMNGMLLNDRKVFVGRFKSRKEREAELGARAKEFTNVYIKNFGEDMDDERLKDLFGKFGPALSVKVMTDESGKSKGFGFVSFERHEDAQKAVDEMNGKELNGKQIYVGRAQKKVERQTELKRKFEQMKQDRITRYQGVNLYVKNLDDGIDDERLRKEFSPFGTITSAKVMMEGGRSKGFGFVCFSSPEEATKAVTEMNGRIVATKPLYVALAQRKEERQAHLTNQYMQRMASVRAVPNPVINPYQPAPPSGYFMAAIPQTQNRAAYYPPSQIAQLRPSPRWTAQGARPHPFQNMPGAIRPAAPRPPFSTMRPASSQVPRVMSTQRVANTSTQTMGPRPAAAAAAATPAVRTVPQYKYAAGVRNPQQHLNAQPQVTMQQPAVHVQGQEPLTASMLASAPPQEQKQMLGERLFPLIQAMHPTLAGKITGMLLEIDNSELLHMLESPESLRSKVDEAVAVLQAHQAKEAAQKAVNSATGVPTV
# eIF4H FP inh – inhibitors of RNA binding by human eIF4H; 290,000 compounds, 0.94% hits; eIF4H fluorescence polarization binding assay; inhibition, % at 35 µM;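 active = 50% or more with normal probe brightness, or confirmed in later tests; about a fifth of its hits are not listed in these tables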;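 also: calls also rest on retests at 20 µM and on dose response follow-up; 0% = protein and probe with vehicle and 100% = probe without protein; strong numbers were not always called active; many hits fall short of the cut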
# Yeast UUG start – modulators of start codon recognition fidelity in yeast. S. cerevisiae UUG-firefly luciferase reporter, luminescence/redox ratio. activity score, % at 18.7 µM. 350,000 compounds, 0.13% hits. AID 602363;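 active = replicate mean at a twofold rise or more, about +100% in these data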;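 also: firefly luciferase made from a UUG start codon reports start codon fidelity; reporter light over untreated wells divided by growth signal over untreated wells; some hits fall short of that in this replicate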
# MT1-MMP act inh – inhibitors of human MT1-MMP activation | P50281 | GFP/RFP ratio change, % at 20 µM | 360,000 compounds, 0.061% hits | HT1080 RFP-PRO-GFP cells, GFP/RFP ratio fluorescence, overnight; percent of plate control window, DMSO zero;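 active = GFP/RFP ratio change of at least 30% with cell ATP level not reduced by more than half and red fluorescence within 50% of control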; also: strong numbers were not always called active
#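 system = RFP-PRO-GFP reporter HT1080 cells | dosing = 20 µM single dose, 1% DMSO | timing = overnight cell settling, then overnight compound exposure, 37 °C, 5% CO2 | read-out basis = GFP/RFP fluorescence ratio | controls = DMSO and RFP-L50D-GFP cell wells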
# HIV Env fusion – HIV envelope-mediated fusion inhibition | HeLa-JRFL Env/CEM21 cell fusion, luciferase | inhibition, % at 12.3 µM | 360,000 compounds, 1.1% hits | AID 651610;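 active = mean replicate inhibition score of at least 50 and every replicate individually at or above 50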;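 also: 0% = plate neutral controls and 100% = maraviroc near 300 nM; one replicate is shown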
# MT1-MMP act inh RFP – recorded beside MT1-MMP act inh, whose call it bears; RFP signal change, %; measured here: RFP expression control read;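 0 = vehicle wells; hits needed this value within 50% of zero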
# Numbers without * were called inactive; i = inactive; x = no result given.
No.	SMILES	Rce1 inh	CSC inhib	PABP FP inh	eIF4H FP inh	Yeast UUG start	MT1-MMP act inh	MT1-MMP act inh RFP	HIV Env fusion
1	O=C1c2[nH]nc(-c3ccccc3O)c2C(c2ccc(F)cc2)N1CC1CCCO1 (stereo unspecified)	i	-11	-10	-8	-2	-3	-1	-172
2	NC(=O)c1ccccc1NC(=O)/C=C/C(=O)O	i	-7	3	-5	-16	3	6	1
3	C=CCNC(=S)N1CCN(c2cccc(C(F)(F)F)c2)CC1	i	8	9	2	-33	5	-3	-12
4	OCCCNCc1cccc2ccccc12	i	-5	-4	-11	-20	3	0	x
5	O=C(Nc1c(Cl)cccc1Cl)c1cc(=O)n(Cc2ccccc2)c(=O)[nH]1	x	-6	-4	9	x	4	1	-52
6	COCCNC(=O)C(c1ccc(F)cc1)N(Cc1ccccc1)C(=O)CCC(=O)Nc1ccccn1 (stereo unspecified)	i	-13	8	-1	-7	-1	2	6
7	Cc1cccc2c(=O)c(C(=O)NCc3cccs3)c[nH]c12	i	x	x	x	-11	1	2	x
8	O=C(c1ccc(C(=O)N2CCCc3ccccc32)s1)N1CCCc2ccccc21	i	-5	-3	-5	-16	-8	-8	-35
9	O=C(CCn1c(=O)c2ccccc2n(CC(=O)NC2CCCC2)c1=O)NCCc1ccc(Cl)cc1	x	14	-5	-10	-1	2	2	-68
10	COc1ccc(CN(C(=O)c2cc(=O)c3cc(C)cc(C)c3o2)C2CCS(=O)(=O)C2)cc1 (stereo unspecified)	i	-11	-6	-4	-10	-3	-3	24
11	CN(Cc1ccccc1)C(=O)c1[nH]cnc1C(=O)NCCCCCNC(=O)OC(C)(C)C	x	-20	x	x	-10	6	-7	-26
12	O=C(Nc1cccc(S(=O)(=O)N2CCCCCC2)c1)C1CCN(C(=O)c2ccc(Cl)cc2)CC1	i	-4	x	x	x	-10	-21	6
13	O=C(c1ccc2c(c1)OCCCO2)N1CCCCC1	i	-5	-11	-9	x	3	6	1
14	CCCCc1ccc(S(=O)(=O)Nc2cc(C)on2)cc1	i	1	12	-2	-3	1	5	x
15	CC(C)Cc1nc2sc3c(SCC(N)=O)ncnc3c2c2c1CCC2	i	-20	-7	4	-8	0	0	9
16	CNC(=O)c1sc(-c2ccc(Cl)cc2)nc1C	i	0	-10	-6	-1	2	6	x
17	NNC(=O)c1[nH]c2ccc(Cl)cc2c1-c1ccccc1	i	61	7	-10	x	-9	-3	-206
18	CC(=O)N(CC(C)C(=O)O)c1c(I)cc(I)c(N)c1I (stereo unspecified)	x	-4	x	x	-3	2	6	i
19	CC(=O)N1CCOc2ccc(S(=O)(=O)N3CCC(C(=O)NCc4ccc(C)cc4)CC3)cc21	i	-24	-5	3	-1	3	3	1
20	O=C(O)CCC(=O)Nc1ccc(SSc2ccc(NC(=O)CCC(=O)O)cc2)cc1	i	-15	13	-5	-16	-4	-1	-2
21	OCC1(Cc2ccccc2)CCN(C2CCN(c3ccc(F)c(F)c3)CC2)CC1	i	7	-2	4	x	5	2	3
22	Cc1cccc(C)c1OCCN1CCCC1	i	-16	16	3	-12	1	4	7
23	CCCC(=O)NCCc1nc2ccccc2n1CC(=O)c1ccccc1	i	x	-12	-3	-12	3	5	0
24	Cc1ccc2n(n1)c(=O)c(Cc1ccccc1)c([O-])[n+]2-c1ccccc1	i	-11	1	8	-6	-2	5	-20
25	CCOc1ccc(N(CC(=O)Nc2ccc(C)c(C)c2)S(=O)(=O)c2c(C)[nH]c(=O)[nH]c2=O)cc1	i	-5	4	-15	3	2	1	13
26	COc1ccc(/C=C/CN2CCC(CO)(Cc3ccccc3Cl)CC2)cc1	i	13	1	-6	-4	-4	-5	24
27	O=C1c2ccccc2S(=O)(=O)N1Cc1cc(=O)n2ccsc2n1	i	-9	-1	2	1	4	7	-18
28	N#Cc1ccsc1NC(=O)COC(=O)CCS(=O)(=O)c1ccccc1	x	3	x	x	-9	0	7	1
29	CN(C)Cc1c(C(=O)N/N=C/c2ccco2)nnn1-c1nonc1N	i	-8	-1	-13	-19	-5	-2	-1
30	CCC(=O)N1CCN(c2ccc(NC(=O)COc3ccccc3[N+](=O)[O-])cc2)CC1	i	-2	-32	4	-19	0	-8	-13
31	COC(=O)c1ccc(CNC(=O)COC(=O)c2cccs2)cc1	x	9	x	x	x	-2	1	16
32	O=S(=O)(c1ccc(OC(F)(F)F)cc1)N1CCCC(c2ccccc2)C1 (stereo unspecified)	i	5	-8	-8	-7	-2	1	23
33	O=C1CC(/C=C/c2ccccc2)(C(=O)NC2CCCC2)N1c1ccc(S(=O)(=O)N2CCCC2)cc1 (stereo unspecified)	i	11	-6	-8	55	-6	-4	-5
34	COC(=O)C1=C(C)N(Cc2ccccc2)C(=NCCc2cccnc2)N[C@H]1c1ccc(Br)cc1	x	-4	x	x	-3	-3	0	x
35	CC(C)CC(=O)N1CCN(c2ccc([N+](=O)[O-])cc2Cl)CC1	i	1	1	3	2	3	-1	-7
36	Cc1ccc(CNC(=O)c2cccnc2Cl)cc1	i	-6	-2	0	-16	-2	-5	-8
37	COc1ccc(-c2ccc3nnc(SCC(=O)NCC4CCCO4)n3n2)cc1 (stereo unspecified)	i	-3	x	x	-9	2	4	1
38	O=C(O)/C=C\C(=O)Nc1cccc(NC(=O)c2ccccc2)c1	i	x	7	-6	x	0	2	2
39	Cc1ccc(NS(=O)(=O)c2cccc([N+](=O)[O-])c2)nc1	i	-8	-11	1	x	2	-1	-8
40	O=C(NCc1ccco1)c1ccc(N2CCCCC2)c([N+](=O)[O-])c1	i	-8	6	-1	-3	3	0	11

# 5 entries from above, with one line to a screen.
34	COC(=O)C1=C(C)N(Cc2ccccc2)C(=NCCc2cccnc2)N[C@H]1c1ccc(Br)cc1
35	CC(C)CC(=O)N1CCN(c2ccc([N+](=O)[O-])cc2Cl)CC1
36	Cc1ccc(CNC(=O)c2cccnc2Cl)cc1
37	COc1ccc(-c2ccc3nnc(SCC(=O)NCC4CCCO4)n3n2)cc1 (stereo unspecified)
38	O=C(O)/C=C\C(=O)Nc1cccc(NC(=O)c2ccccc2)c1
Screen / compound no.	34	35	36	37	38
Rce1 inh	x	i	i	i	i
CSC inhib	-4	1	-6	-3	x
PABP FP inh	x	1	-2	x	7
eIF4H FP inh	x	3	0	x	-6
Yeast UUG start	-3	2	-16	-9	x
MT1-MMP act inh	-3	3	-2	2	0
MT1-MMP act inh RFP	0	-1	-5	4	2
HIV Env fusion	x	-7	-8	1	2

# The listing continues:
No.	SMILES	Rce1 inh	CSC inhib	PABP FP inh	eIF4H FP inh	Yeast UUG start	MT1-MMP act inh	MT1-MMP act inh RFP	HIV Env fusion
41	COC(=O)c1ccc(CSc2nc3c(c(=O)[nH]2)CCC3)cc1	x	x	x	x	-10	6	6	18
42	COc1ccc(Br)cc1-c1noc(-c2ccccc2F)n1	i	-10	5	8	2	3	4	x
43	CC(C)c1nc2sc3c(NCc4ccccc4)ncnc3c2c2c1COC(C)(C)C2	i	29	3	0	-17	-1	-1	x
44	CC(C)CC1=NN(C(=O)c2ccco2)C(O)(C(F)(F)F)C1 (stereo unspecified)	i	-11	-9	-2	x	-8	1	4
45	COc1ccc(CN(CC(=O)NCC2CCCO2)C(=O)CCC(=O)Nc2cc(C)on2)cc1 (stereo unspecified)	i	1	-5	0	-8	15	-1	x
46	O=C(Nc1cccc2cccnc12)c1cc(F)c(F)cc1Cl	i	2	1	-14	-12	1	0	-19
47	O=C(NCCCn1ccnc1)c1nn2c(C(F)(F)F)cc(-c3ccccc3)nc2c1Cl	i	12	-8	-4	-6	1	-2	-25
48	C=CCNC(=O)C1CCN(c2nc(C)cc(-c3ccccc3)n2)CC1	i	-8	1	1	2	1	-8	x

# In a second layout: entries from further up
# Every second line gives: Rce1 inh | CSC inhib | PABP FP inh | eIF4H FP inh | Yeast UUG start | MT1-MMP act inh | MT1-MMP act inh RFP | HIV Env fusion
45: COc1ccc(CN(CC(=O)NCC2CCCO2)C(=O)CCC(=O)Nc2cc(C)on2)cc1 (stereo unspecified)
    i | 1 | -5 | 0 | -8 | 15 | -1 | x
48: C=CCNC(=O)C1CCN(c2nc(C)cc(-c3ccccc3)n2)CC1
    i | -8 | 1 | 1 | 2 | 1 | -8 | x

# The results go on:
No.	SMILES	Rce1 inh	CSC inhib	PABP FP inh	eIF4H FP inh	Yeast UUG start	MT1-MMP act inh	MT1-MMP act inh RFP	HIV Env fusion
49	CCOc1ccc(OCCC(=O)N2CCc3cc(OC)c(OC)cc3C2)cc1	i	14	-2	-12	13	1	0	-7
50	O=C(COc1ccccc1)OCC(=O)N1CCCc2ccccc21	i	x	x	x	12	1	2	-1
51	COCCCNC(=O)c1cc(Sc2ccc(F)cc2)nc2ccccc12	i	6	0	-1	-6	4	0	x
52	O=C(NC1CCN(Cc2ccccc2)CC1)c1ccc(CS(=O)c2ccc(F)cc2)o1 (stereo unspecified)	i	-12	6	-6	-20	3	4	-4
53	N#Cc1cc([N+](=O)[O-])ccc1N1CCCC1	i	0	-2	12	x	2	4	-45
54	O=C(CSc1nnc(CNC(=O)c2c(F)cccc2Cl)o1)Nc1ccccc1	i	5	0	3	-3	-1	4	x
55	Cc1ccc(CN(C(=O)c2ccco2)C2CCS(=O)(=O)C2)cc1 (stereo unspecified)	i	-3	-3	-5	-18	0	3	-8
56	Cc1nn(-c2cccc([N+](=O)[O-])c2)c(N)c1-c1ccccc1	i	-12	6	-9	-15	2	-1	-49
57	Cc1ccc(NS(=O)(=O)c2ccc(C(C)(C)C)cc2)cn1	i	-9	-4	-2	-7	4	1	3
58	Cc1c(-c2ccccc2)oc2c(C(=O)N3CCN(c4ccc([N+](=O)[O-])cc4)CC3)cccc2c1=O	i	x	1	-9	x	-9	-14	8
59	CC1CCCN(Cc2nc3c(c(=O)n(C)c(=O)n3C)n2CCCc2ccccc2)C1 (stereo unspecified)	i	-20	-9	0	-6	2	-2	x
60	CNC(=O)c1ccsc1NC(=O)CS(=O)(=O)c1ccc(F)cc1	x	x	x	x	-11	4	-3	11
61	O=C(CCN1C(=O)c2ccccc2S1(=O)=O)NCc1ccccc1Cl	i	x	x	x	-8	3	-1	-30
62	CN(Cc1ccccc1)C(=O)CSc1n[nH]c(N)n1	i	6	0	-1	1	-2	1	-1
63	CC(C)c1cccc(-c2ccc3c(c2)S(=O)(=O)c2cccc(C(=O)NCc4ccccc4)c2C3=O)c1	x	x	x	x	-18	-1	-1	-6
64	Cc1sc2ncnc(N3CCC(C(=O)N(C)CC(=O)Nc4ccccc4Cl)CC3)c2c1C	i	0	37	16	-23	-3	-6	24
65	CCc1ccc(NC(=O)CSc2nnc(-c3cnccn3)n2C)cc1	i	-12	0	-10	-22	-4	-2	-1
66	Cc1c(C#N)c(O)n(CCO)c(=O)c1N=Nc1ccc2c(c1)COC2=O	i	-5	2	2	x	5	0	-10
67	CCOC(=O)/C(C#N)=C/c1cn(CCC(=O)O)nc1-c1ccc(Br)cc1	x	-8	-10	-2	x	0	5	-11
68	CN(C)CCCOC(=O)c1ccc(Br)cc1	i	-4	1	-6	-16	-1	2	-2
69	COC(=O)CC(NC(=O)c1cccs1)c1ccc(OC)c(OC)c1 (stereo unspecified)	i	3	4	8	x	2	1	-4
70	COc1ccc(NC(=O)c2cccnc2)cc1	i	-4	-3	6	-18	-1	1	-10

# From PubChem
